Screens deposited in PubChem by Fisher Drug Discovery Resource Center.
NPYLR7 agonist: agonists of mosquito NPYLR7 receptor, primary screen, cell-based, Aedes aegypti, calcium fluorescence, mosquito biting behavior. Aedes aegypti neuropeptide Y-like receptor 7 (NPYLR7). HEK293T NPYLR7/Galpha15, GCaMP6s calcium fluorescence. activation, % at 10 µM. 0.15% of 270,000 active; in the data active = activation above about 40%;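 also: 0% = vehicle and 100% = reference agonist at the receptor; some compounds past the cut are filed as inactive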
NPYLR7 agonist max-min: further read-out of NPYLR7 agonist, marked with its call; activation, %; measured here: Max-Min RFU normalised activation; some inactives read as strong as hits;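 span of the calcium signal over five minutes; 0% = vehicle and 100% = native peptide agonist; compound fluorescence can raise it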
Starred values were filed as active, the others as inactive; & = joins results of further samples. The list is partial (hit frequency here may not be typical).

SMILES | NPYLR7 agonist | NPYLR7 agonist max-min
Cc1cccc(NC(=O)CCC2CCN(C(=O)Cc3ccsc3)CC2)c1 | -2&18 | -2&10
Cc1ccc(NC(=O)CC(=O)N[C@H]2COC[C@@H]2N2CCCCC2)cc1 | 1 | 0
Cn1cc(CNCCCn2ccnc2)c(-c2ccc(Oc3ccccc3)cc2)n1 | -3 | -6
CCCn1ncc(C(=O)N2CCOC(CCc3ccccc3)C2)c1C (stereo not drawn) | -6 | -8
Cc1ccc(-c2cc(C(=O)NCCN3CCOCC3)c3ccccc3n2)cc1 | -5 | -8
CCCc1[nH]n(-c2ccccc2)c(=O)c1C1=C([n+]2ccccc2)C(=O)N(c2ccc(F)cc2)C1=O | 3 | 12
COc1ccc(NC(=O)c2cc(C3CC3)n(C3CCS(=O)(=O)C3)n2)cc1 (stereo not drawn) | 8 | 4
CC1C(=O)N(C)CCN1Cc1ccc(OCC(=O)N2CCCCC2)cc1 (stereo not drawn) | 13 | 1
CCS(=O)(=O)Oc1ccccc1CN(Cc1ccc(F)cc1)C(=O)CC(C)(C)C | -4 | -4
CCOC(=O)C(Cc1ccccc1)N(Cc1ccc2c(c1)OCCO2)C(=O)CCCCn1ccnc1CO (stereo not drawn) | 16 | 5
CCOC(=O)CC(=O)N1CCC2(CC1)[C@H](C(=O)Nc1ccccc1)[C@@H](OC)C(=O)N2C | 2 | 13
Cc1ccccc1-c1csc(C(O)(c2ccccc2)C(F)(F)F)n1 (stereo not drawn) | -2 | -1
O=C(OCc1cccnc1)c1ccc(S(=O)(=O)C(F)F)cc1 | 5 | 4
O=C(O)CN1CCCCCC1=O | 5 | 16
CCC(C(=O)C(C#N)c1nccn1CC(F)(F)F)c1ccccc1 (stereo not drawn) | 4 | 21
CCN(CC)C(=O)Oc1ccc2c(ccn2Cc2ccccc2Cl)c1NC(=O)c1ccncc1 | 0 | 9
O=C(Cn1c2ccccc2c2ncn(Cc3ccccc3)c(=O)c21)NC1CCCC1 | 10 | 13
Cn1c(=O)[nH]c(=O)c2c1nc(N1CCN(Cc3ccc(F)cc3)CC1)n2Cc1ccc(F)cc1 | 11 | 5
c1cc2c(cc1C1=NNC(=NC3CC3)SC1)OCCCO2 | -14 | -18
CCOc1ccc(-c2cc(C)n3nc(C(=O)NCc4cccnc4)cc3n2)cc1 | -3 | -5
Cc1cccc(Cc2cnc(NC(=O)c3cccnc3)s2)c1Cl | 4 | 2
COc1ccc(-c2noc(CCC(=O)N3CC(=O)Nc4ccccc43)n2)cc1 | 3 | 1
Cc1ccc(C(=O)N2CCN(S(=O)(=O)c3ccc4c(c3)CCCC4)CC2)cc1[N+](=O)[O-] | -2 | 1
CN(c1ccccc1)N1CC(C(=O)NC2CCC(C(C)(C)C)CC2)CC1=O (stereo not drawn) | 1 | -7
Cc1nc(-c2ccc(Cl)cc2)nc(N2CCN(C(=O)Nc3cccc(F)c3)CC2)c1Cc1ccccc1 | -5 | -3
COC(F)(F)C(Cl)Cl | -16 | -23
O=C(O)CN1C(=O)/C(=C\c2ccncc2)SC1=S | -2 | -8
O=C(CC12CC3CC(CC(C3)C1)C2)Nc1nn[nH]n1 | -10 | -18
CCOc1ccccc1NC(=O)Cn1nc(C2CC2)c2cnn(-c3ccc(F)cc3)c2c1=O | 6 | 2
CC(C)CCC(=O)C(C#N)c1nnc(-c2ccccc2)n1C (stereo not drawn) | 4 | 2
C=CCOC(=O)C1C(C)=Nc2nc(SCCC)[nH]c(=O)c2C1c1ccc(Cl)cc1 (stereo not drawn) | 4 | 2
CN(C)c1ccccc1C(=O)N1CCCC(CNC(=O)c2ccccc2Cl)C1 (stereo not drawn) | 4 | -3
CCCN1C(=O)NC2(CCN(C(=O)c3ccc(-c4ccccc4)cc3)CC2)C1=O | 1 | 16
COc1ccc2sc(N(Cc3cccnc3)C(=O)c3cc(C)nn3C)nc2c1 | 7 | 5
Cc1ccc(C(=O)N2CCCC(Cc3ccc(C(=O)O)cc3)C2)cc1F (stereo not drawn) | 5 | 1
c1ccc(-c2cc(NCCCn3ccnc3)n3ncc(-c4ccccc4)c3n2)cc1 | 2 | 3
O=C(Nc1nc(-c2ccccc2Cl)cs1)C1CCC1 | -9 | -10
CCCCN(CCC(=O)NC(Cc1ccccc1)c1ccccc1)c1nc(Cc2ccc(F)cc2)ns1 (stereo not drawn) | -2 | 3
CCS(=O)(=O)Nc1ccc(-n2nc(OCCc3ccc(OC)cc3)nc2-c2ccc(Cl)c(Cl)c2)cc1 | 0 | 9
CCCC(=O)OCC(O)CN(CCCOC)Cc1cccn1Cc1ccccc1F (stereo not drawn) | -1 | 2

Another view of part of the listing above.
Values in the order – NPYLR7 agonist | NPYLR7 agonist max-min
Cc1nc(-c2ccc(Cl)cc2)nc(N2CCN(C(=O)Nc3cccc(F)c3)CC2)c1Cc1ccccc1
    -5 | -3
COC(F)(F)C(Cl)Cl
    -16 | -23
O=C(O)CN1C(=O)/C(=C\c2ccncc2)SC1=S
    -2 | -8
O=C(CC12CC3CC(CC(C3)C1)C2)Nc1nn[nH]n1
    -10 | -18
CCOc1ccccc1NC(=O)Cn1nc(C2CC2)c2cnn(-c3ccc(F)cc3)c2c1=O
    6 | 2
CC(C)CCC(=O)C(C#N)c1nnc(-c2ccccc2)n1C (stereo not drawn)
    4 | 2
C=CCOC(=O)C1C(C)=Nc2nc(SCCC)[nH]c(=O)c2C1c1ccc(Cl)cc1 (stereo not drawn)
    4 | 2
CN(C)c1ccccc1C(=O)N1CCCC(CNC(=O)c2ccccc2Cl)C1 (stereo not drawn)
    4 | -3
CCCN1C(=O)NC2(CCN(C(=O)c3ccc(-c4ccccc4)cc3)CC2)C1=O
    1 | 16
COc1ccc2sc(N(Cc3cccnc3)C(=O)c3cc(C)nn3C)nc2c1
    7 | 5
Cc1ccc(C(=O)N2CCCC(Cc3ccc(C(=O)O)cc3)C2)cc1F (stereo not drawn)
    5 | 1
c1ccc(-c2cc(NCCCn3ccnc3)n3ncc(-c4ccccc4)c3n2)cc1
    2 | 3
O=C(Nc1nc(-c2ccccc2Cl)cs1)C1CCC1
    -9 | -10
CCCCN(CCC(=O)NC(Cc1ccccc1)c1ccccc1)c1nc(Cc2ccc(F)cc2)ns1 (stereo not drawn)
    -2 | 3

(next part)
SMILES | NPYLR7 agonist | NPYLR7 agonist max-min
C=C(C)CNC(=O)c1cnc2c(-c3ccccc3F)cnn2c1C | 21 | 11
Cc1ccc(CN(C)C(=O)c2csc3nc(-c4cccc(F)c4)cn23)o1 | 2 | -1
CCc1c(C(=O)Nc2nnc(C)s2)cnn1-c1ccc(C)cc1 | 10 | 7
Cc1cc(C)cc(Nc2ncc3c(n2)CCN(C(=O)c2ccc4nc[nH]c4c2)C3)c1 | 13 | 15
CC(C(=O)N(C)Cc1ccccc1)N1CCN(c2cccc(Cl)c2)CC1 (stereo not drawn) | 1 | 1
CC1CN(c2ccc(NC(=O)N3CCn4cccc4C3C)cc2F)CC(C)O1 (stereo not drawn) | 0 | -2
COc1cccc(C2CCCN2S(=O)(=O)c2cn(C)c(C)n2)c1 (stereo not drawn) | 0 | -6
O=C(CSc1nc(=O)n(CCCO)c2c1CCCC2)N1CCCc2ccccc21 | -2 | -15
CCOc1ccc(-n2nnnc2CNS(=O)(=O)CC)cc1 | -2 | -4
COCCNC(=O)c1sc(=O)n(Cc2c(C)cccc2C)c1C | 4 | 1
CC(=O)NCc1ccc(-c2csc(N3CCCC(C)C3)n2)s1 (stereo not drawn) | 2 | -2
COc1cccc(C2CCN(Cc3nc(C4(c5ccc(C)cc5)CCCC4)no3)C2)c1OC (stereo not drawn) | 13 | 5
Cc1ccc2cc(CN(C)Cc3ccncn3)c(=O)[nH]c2c1 | 2 | -2
CCOC(=O)C1CCN(C(=O)CC(c2ccccc2OC)c2cn(C)c3ccccc23)CC1 (stereo not drawn) | -1 | 6
CC(C)OC(C)c1nnc(SCC(=O)O)n1-c1cccnc1 (stereo not drawn) | 4 | 9
Cc1ccccc1Cn1cc(C(=O)N(C)Cc2cccc3cccnc23)nn1 | 0 | -5
S=C(NCCN1CCOCC1)Nc1ccc(N2CCOCC2)cc1 | 3 | 11
O=S(=O)(c1ccc(C(F)(F)F)cc1Cl)N1CCN(c2nccc(-c3ccc(N4CCOCC4)cc3)n2)CC1 | 2 | -1
CN1CCN(CNC(=O)c2cnccn2)CC1 | 2 | 2
COc1ccc(C(=O)N2CCCC(N3CCN(c4ccccc4F)CC3)C2)c(OC)n1 (stereo not drawn) | 15 | 2
COc1cc(C(C2Sc3nc(C)nn3C2=O)N2CCCCC2)cc(OC)c1OC (stereo not drawn) | -2 | -1
CN(C)Cc1ccccc1CN(C)c1nc(C(C)(C)C)nc2c1cnn2C | 3 | 0
CC(C)NC(=O)CN1CCN(Cn2nc(Nc3ccccc3Cl)sc2=S)CC1 | 3 | 9
COc1ccc(OC)c2[nH]c(=O)c(CCNC(=S)NC(C)(C)C)cc12 | 2 | 34
CS(=O)(=O)N(CC(=O)Nc1cc(Cl)c(Cl)cc1Cl)Cc1ccccc1 | 3 | 4
CCOc1ccc(NS(=O)(=O)c2cccc(Cl)c2)cc1OC | 13 | 3
COc1ccc(Nc2nc(N3CCCC(C)C3)nc3[nH]ncc23)cc1 (stereo not drawn) | -1 | 0
Clc1ccc(-c2ccc(-c3nn4c(-c5ccco5)nnc4s3)o2)cc1 | -2 | -4
Cc1cc(C)n2c(SCc3cc(=O)oc4cc(C)c(C)cc34)nnc2n1 | -4 | -4
CNc1ccccc1C(=O)N(Cc1ccccc1)CC(C)CO (stereo not drawn) | 0 | 4
O=C(C1CCOCC1)N1CCOC(CC(c2ccccc2)c2ccccc2)C1 (stereo not drawn) | 2 | -2
O=C1CCCN1CCCNc1nc(-c2ccc(Cl)cc2)nc2c1CNC2 | 3 | 3
CNC(=O)Cn1cnc(NC(=O)CCc2ccc(Cl)cc2)n1 | 7 | 6
Cc1nonc1CN(C)C(=O)c1cc(-c2cccs2)nn1C | 7 | 5
Cc1ccc2c(c1)C1(SC(C)(C)CN1C(=O)c1cccs1)C(=O)N2Cc1ccccc1 (stereo not drawn) | -2 | 2
COC(=O)C1C(c2ccc(OC)cc2)Nc2nnc(C(F)(F)F)n2C1(C)O (stereo not drawn) | 7 | 3
O=C(Nc1nc(-c2cc3cc(Br)ccc3oc2=O)cs1)c1ccccc1 | -6 | -10
CN(C)c1ccc(C(=O)Nc2ccc3c(c2)OC(F)(F)O3)cn1 | 2 | 0
COc1ccc(NC(=O)c2ccc(C#N)cn2)cc1Br | 5 | 4
COCCCn1c(C)cn2c3c(=O)n(Cc4cc(C)ccc4C)c(=O)n(C)c3nc12 | 16 | 8
Cc1ccc2c(C)c(C(=O)N3CCC4(CN(C)C(=O)O4)C3)oc2c1 (stereo not drawn) | 11 | 10
CCn1c(SCC(=O)NCc2ccco2)nnc1-c1c(C)nc2sccn12 | 1 | 1
Cc1cc(CNc2nc(C)ccc2C(N)=O)ccn1 | 1 | -1
C=CCC1(CC=C)CCCN1C(=O)c1ncc[nH]1 | -3 | -4
c1ccc(CCCSCn2ccnc2)cc1 | -2 | -7
Cc1cccc(OCC(=O)N2CCc3[nH]c4ccccc4c3C2)c1C | -3 | -3
Cc1cccc(Nc2nc3nonc3nc2N/N=C\c2cccc(Cl)c2Cl)c1C | -6 | -11
CCc1ccc(C(=O)Nc2cccc(-n3c(C)c[nH]c3=O)c2)o1 | 5 | 2
Cc1ccc(NC(=O)c2cc3cc(Cl)ccc3oc2=O)cc1 | -1 | 5
O=C(c1cccs1)N1CCN(Cc2nc(C3CC3)cs2)CC1 | -11 | -16

More structures:
SMILES | NPYLR7 agonist | NPYLR7 agonist max-min
CCCCN(Cc1ccc(F)cc1)C(=O)[C@H]1CCCC[C@H]1C(=O)NC | -5 | -15
C=CCn1c(=NC(=O)CN2C(=O)c3ccccc3C2=O)sc2cccc(OC)c21 | 4 | 2
Cc1ccc(OCc2ccc(-c3nc(C#N)c(N(C)C)o3)o2)cc1 | 1 | 9
COc1ccc(-c2nccn2CCc2ccncc2)c(Cl)c1OC | 8 | -19
CCOC(=O)C1CCCN(C(=O)c2c(C)c(CC)c(C)n2Cc2ccccc2C)C1 (stereo not drawn) | -1 | 15
CC1=CCCC(C)(C)C1C=CC(C)=NNc1nc2ccccc2[nH]1 (stereo not drawn) | -4 | -8
Cc1nc(-c2cccnc2)sc1-c1ccc(SCC(=O)Nc2ccc(C(C)C)cc2)nn1 | 5 | 2
CC1Sc2ccccc2N(Cc2ccccc2)C1=O (stereo not drawn) | -2 | 6
CCOC(=O)C1=C(C)N=c2s/c(=C\c3ccc(O)c(OCC)c3)c(=O)n2C1c1ccc(OC)c(OC)c1 (stereo not drawn) | 13 | 16
CCn1cc(C(=O)CSc2ncc(C#N)c(N)n2)c2ccccc21 | -1 | -6
COc1cccc(N2C(=O)CN(Cc3cnn(-c4ccccc4)c3)CC2C)c1 (stereo not drawn) | 3 | 1
CCS(=O)(=O)N1CCN(C(=O)c2ccc3nc(C)c(N(C)C(=O)CCc4ccccc4)n3c2)CC1 | -3 | 11
COc1ccc(OCC2CN(CCc3ccccc3)S(=O)(=O)c3cnccc3O2)cc1 (stereo not drawn) | -5 | 2
COc1cccc2cc(-c3cc(=O)oc4ccc(OCC(N)=O)cc34)oc12 | 1 | -6
CCOC(=O)c1cc(-c2cccc(NC(=O)C(OC(C)=O)c3ccccc3)c2)n(-c2ccccn2)n1 (stereo not drawn) | 18 | 8
Cc1ncc(CN(C)Cc2cnn(-c3ccccc3)c2)n1C | -6 | -11
Cc1cccc(Nc2ccc(N3CCN(C(=O)C(C)(C)C)CC3)nn2)n1 | 17 | 9
Cc1onc(-c2ccccc2)c1C(=O)NCC1Cc2cc(Oc3ccccc3)ccc2O1 (stereo not drawn) | 2 | 19
O=C(NC1CCS(=O)(=O)C1)c1ccc(-c2ccc(F)cc2)s1 (stereo not drawn) | 0 | 0
COc1cccc(C(=O)N2CCN(c3ccccc3OC)C(=O)C2C)c1 (stereo not drawn) | 0 | 10
